Beta apoptosis: beta cell apoptosis inhibition; INS-1E cytokine-induced death, ATP luminescence, 48 h; percent of positive-control rescue, neutral wells zero; actives 0.8% (n = 300,000); protection from apoptosis, % (concentration not given with the values);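 active = all replicates at 75% or more, or half of them and the mean; inconclusive = half reach 75% but not the mean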;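 note: 0% = cytokine-treated negative control wells and 100% = positive control rescue; higher means more ATP so stronger rescue from cytokine killing; wells of about 40 µL received 100 nL stock; the first replicate is given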
RanGTP-Imp inh: inhibitors of RanGTP-importin-beta interaction, primary screen, biochemical, FRET, CFP-Ran, YFP-importin-beta, homogeneous. cell-free CFP-Ran/YFP-importin-beta FRET ratio. inhibition, % (test concentration not listed). actives 1.1% (n = 300,000). AID 2216;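 active = most replicates above 15%; inconclusive = exactly half above 15%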;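 note: 0% = DMSO wells and 100% = Ran loaded with GDP instead of GTP; wells of about 40 µL received 100 nL stock; the first replicate is given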
A1 inh: inhibitors of the anti-apoptotic protein A1, read as caspase activation. MEF A1-2A-BIM cells, Caspase-Glo 3/7 luminescence, 3 h; percent of clofoctol response, vehicle zero. caspase activation, % (test concentration not listed). actives 0.066% (n = 330,000). AID 2462;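 active = over half of replicate activation scores above 10%, or exactly half above 10 with the replicate mean above 10; inconclusive = replicate mean below 10 yet half the replicates above 10; inactive = over half of replicates below 10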;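 note: wells of about 30 µL received 50 nL stock; many hits fall short of the cut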
LANA-H2A inh: blocks KSHV LANA binding to histone H2A/H2B | Q9QR71 | cell-free LANA-H2A/H2B peptide, fluorescence polarization | inhibition, % (test concentration not listed) | actives 0.6% (n = 320,000); in the data active = inhibition mostly above about 10%, no sharp cut-off; inactive = mostly below about 6.7%;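 note: stock transfer was 7.5 nL into about 10 µL; 0% = median of vehicle wells and 100% = median of positive control wells; one replicate is shown; the record names a cut of 25% in any replicate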
Target sequence (Q9QR71 whole entry, looked up): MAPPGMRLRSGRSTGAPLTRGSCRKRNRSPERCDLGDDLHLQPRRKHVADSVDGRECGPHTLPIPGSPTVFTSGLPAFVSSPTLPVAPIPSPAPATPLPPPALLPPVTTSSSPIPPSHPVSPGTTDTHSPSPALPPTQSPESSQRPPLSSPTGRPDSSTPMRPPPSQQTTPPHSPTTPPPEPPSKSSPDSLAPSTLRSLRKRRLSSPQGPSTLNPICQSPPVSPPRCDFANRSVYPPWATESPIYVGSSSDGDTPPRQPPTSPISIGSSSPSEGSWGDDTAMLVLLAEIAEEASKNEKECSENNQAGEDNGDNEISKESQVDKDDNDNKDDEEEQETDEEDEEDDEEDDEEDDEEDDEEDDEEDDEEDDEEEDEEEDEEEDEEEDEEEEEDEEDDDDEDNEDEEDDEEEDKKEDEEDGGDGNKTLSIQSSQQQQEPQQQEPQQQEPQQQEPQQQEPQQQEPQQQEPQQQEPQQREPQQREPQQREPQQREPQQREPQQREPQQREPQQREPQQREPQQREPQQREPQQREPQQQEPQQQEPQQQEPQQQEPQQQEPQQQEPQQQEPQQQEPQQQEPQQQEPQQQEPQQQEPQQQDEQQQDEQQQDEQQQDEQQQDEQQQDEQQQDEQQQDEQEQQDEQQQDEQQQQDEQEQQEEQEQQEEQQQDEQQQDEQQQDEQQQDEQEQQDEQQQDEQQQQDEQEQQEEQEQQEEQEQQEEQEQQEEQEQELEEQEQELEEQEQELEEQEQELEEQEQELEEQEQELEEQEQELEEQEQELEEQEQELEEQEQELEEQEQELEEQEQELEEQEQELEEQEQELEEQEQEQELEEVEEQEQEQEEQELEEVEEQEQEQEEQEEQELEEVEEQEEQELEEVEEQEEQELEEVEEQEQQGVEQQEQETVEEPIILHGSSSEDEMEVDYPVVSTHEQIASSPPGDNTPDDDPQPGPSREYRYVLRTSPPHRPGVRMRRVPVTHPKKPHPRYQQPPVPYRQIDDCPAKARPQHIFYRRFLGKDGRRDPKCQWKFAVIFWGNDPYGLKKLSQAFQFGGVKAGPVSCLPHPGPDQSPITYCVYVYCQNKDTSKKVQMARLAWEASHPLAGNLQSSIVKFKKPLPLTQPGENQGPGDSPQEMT
UCH37 inh: blocks the human deubiquitinase UCH37 | purified proteasome/UCH37, Ub-AMC cleavage fluorescence | Q9Y5K5 | inhibition, % (concentration not given with the values) | actives 0.33% (n = 330,000);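 active = mean of two replicates above 20%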;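 note: 0% = compound-free wells with enzyme and 100% = wells lacking proteasome; stock transfer was 100 nL into about 20 µL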
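Assay system: Proteasome-bound UCH37. Buffer or medium: pH 7.4 Tris-HCl (50 mM) with ovalbumin, ATP-MgCl2, DTT. Incubation: 30 min preincubation with enzyme, 25 min cleavage at room temperature. Measured by: fluorescence, ex 355 nm, em 460 nm. Read-out basis: percent inhibition. Control set: wells without proteasome as full block, compound-free enzyme plus substrate as uninhibited.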
T cruzi inh: T. cruzi replication inhibition; T. cruzi beta-gal in NIH3T3, luminescence, 90 h; inhibition, % (no concentration beside the values); actives 1.4% (n = 300,000);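 active = mean inhibition across valid replicates above about 55%, limit read from the data; inconclusive = mean below that limit but half or more replicates reach it; inactive = mean below it, under half of replicates reach it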;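 note: signal also drops with host cell toxicity which is not excluded here; 0% = plate median of DMSO wells and 100% = zero luminescence signal; higher percent means less beta-gal luminescence so fewer parasites; stock transfer was 50 nL into about 50 µL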
Beta2AR agonist: activates human beta-2 adrenergic receptor causing internalization. AID 504454. response, % (concentration not given with the values). Am2.2-beta2AR cells, FAP receptor internalization, flow cytometry; reference of the scale not given here. actives 0.43% (n = 340,000);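 active = response above a set limit, near 3 SD of response in nonfluorescent compounds, cut at about 42% in these data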;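 note: stock transfer was 100 nL into about 11 µL; a reference agonist was the positive control; negative values mostly stem from fluorescent compounds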
Calb FLC: affects C. albicans growth with fluconazole; C. albicans CaCi-2 (fluconazole-resistant clinical isolate) + fluconazole, Alamar Blue growth, 48 h; growth inhibition, % (concentration not given with the values); actives 0.57% (n = 300,000); AID 1979;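 active = most replicates above 75%; inconclusive = exactly half above 75%; inactive = most below 75%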;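 note: all wells also contain fluconazole at 8 µg/ml as a sub-toxic cotreatment; 0% = median of DMSO wells and 100% = median of geldanamycin control wells; wells of about 8 µL received 7.5 nL stock; the first replicate is given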
* marks the source's active call; other numbers are inactive results; ? = inconclusive; · = no result given.

Every second line gives: Beta apoptosis, RanGTP-Imp inh, A1 inh, LANA-H2A inh, UCH37 inh, T cruzi inh, Beta2AR agonist, Calb FLC
Cc1cccc(C)c1NC(=O)C1(N2CCN(C(=O)c3ccco3)CC2)CCCCC1
→ -5, 5.8, -0.3, -4.1, 2.9, -26, 0, 7
Cc1c(NC(=O)/C(C#N)=C/c2c(N3CCCCC3)nc3ccccn3c2=O)c(=O)n(-c2ccccc2)n1C
→ 1, 2.6, 0.6, 1.5, 5.1, 5, -8, -2
NC(=S)Nc1ccc(S(=O)(=O)c2ccc(NC(N)=S)cc2)cc1
→ -12, 1.8, 0.2, -5.2, 6.0, -1, -11, -1
C/C(Cl)=C\Cn1c(N2CCCC2)nc2c1c(=O)n(C)c(=O)n2C
→ 8, ?, 2.4, -1.1, 0.6, 8, -3, 1
CCn1c(CCCNC(=O)c2ccco2)nc2ccccc21
→ ·, 1.2, 0.4, 5.4, 1.4, 3, 4, -1
COCCn1c(-c2ccc(NC(C)=O)cc2)nc2c1c(=O)[nH]c(=O)n2CC(C)C
→ -5, 2.8, 0.7, 13*, -51, 2, -3, 9
CC(=O)Nc1sc(NC(=O)c2ccc([N+](=O)[O-])cc2)nc1-c1cccs1
→ 3, 7.2, -0.7, 0.1, 6.6, 33, -16, 1
COc1ccc(N(CC(=O)NC2CC2)S(=O)(=O)c2ccccc2)cc1
→ -7, 1.5, -0.2, 0.5, 1.7, 15, 1, 3
O=C(CCC(=O)c1cccs1)NCCc1ccc(F)cc1
→ ·, 0.4, -0.2, 4.4, -1.7, -5, -2, -1
CCN1CCN(CCCN(Cc2ccco2)C(=S)Nc2ccc(Cl)cc2)CC1
→ -5, -1.0, 0.5, -0.5, 1.0, 6, 4, -7
OCCNc1nc(-c2ccccc2)nc2ccccc12
→ -5, 17*, 0.4, 7.7, -1.5, -9, -18, 17
CCOC(=O)C1CCN(C(=O)CCn2c(=O)[nH]c3ccccc3c2=O)CC1
→ -5, -1.4, 0.7, -0.1, -0.1, -15, -2, -1
COc1ccc(NC(=O)CN(C)C(=O)c2ccccc2Sc2ncnc3sc(C)c(C)c23)cc1
→ -7, 6.3, -1.5, -1.3, 3.2, -1, 5, -5
C=CCn1c(=O)c(C(=O)NCCc2ccc(Cl)cc2)c(O)c2cc(OC)c(OC)cc21
→ -5, 2.3, 1.0, -0.4, -176, 1, 6, 12
COc1cc(Nc2ccc(S(N)(=O)=O)cc2)c([N+](=O)[O-])nc1[N+](=O)[O-]
→ -3, 2.7, 1.2, -2.0, 11, 7, 5, 5
O=C(c1ccc(Cl)c(Cl)c1)c1cnc(Nc2ccccc2)s1
→ -5, 1.4, 0.0, 1.7, 1.0, 4, 1, -18
O=C(CCc1ccccc1)NC1(Cc2ccccc2)CCN(CCc2cccs2)C1=O (stereo not given)
→ 0, ·, 0.4, 1.2, 3.5, ·, 8, ·
Cc1cccc(C(=O)Nc2ccnc(-c3cccnc3)n2)c1
→ 0, 1.7, 0.1, -3.5, 5.6, 5, -5, 13
CCc1ccccc1NC(=O)c1cc(C)no1
→ ·, -3.1, 0.5, -0.3, 0.4, -13, -2, -4
COc1cccc(C(=O)OCCN2C(=O)c3ccccc3C2=O)c1OC
→ ·, -18, 0.9, 2.8, 2.1, 6, 1, 4
CCOc1cc(C(=O)NCc2ccco2)cc(OCC)c1OCC
→ -8, ?, -0.3, -2.9, ·, 25, 1, 2
CCN(CC)Cc1nc2c(c(=O)[nH]1)C1(CCCCC1)Cc1ccccc1-2
→ 6, 30*, 0.5, 0.6, 2.5, 30, -5, -23
Cc1c(C(=O)NNC(=O)c2csc(N3CCOCC3)n2)oc2ccccc12
→ 1, ·, 0.9, 0.7, 5.1, ·, -4, ·
C/C(=N\N1C(=O)c2ccccc2C1=O)c1cccc([N+](=O)[O-])c1
→ -3, -0.9, 0.0, 6.5, ·, -12, 0, -2
Cn1c2c(c(=O)n(C)c1=O)CN(CCc1ccccc1)CN2
→ ·, ?, 0.7, 1.5, -2.1, -5, -1, 11
O=C(OCC(=O)c1c[nH]c2ccccc12)c1cc2ccccc2cc1O
→ 3, 0.3, 0.8, -6.1, ·, -11, 2, -5
O=C(NNc1ccc(F)cc1F)C1CCC1
→ -3, 0.8, 0.8, -0.1, -0.2, 24, 14, -26
COC(=O)c1c(NC(C)=O)sc2c1CCCC2
→ 3, -4.3, 0.3, 8.1, 1.2, 2, -4, -3
CC(C)Cn1c(SCC(=O)Nc2ccc3[nH]c(=O)[nH]c3c2)nc2ccccc2c1=O
→ 10, 1.5, 0.9, -5.3, 1.9, -16, 9, 2
Cc1ccc(CN2CCN(CC(C)C)C(CCO)C2)s1 (stereo not given)
→ -5, -1.5, 0.0, 1.7, 0.5, -9, 4, 5
Cc1ccc(OCC(=O)NNC(=O)Cn2c(=O)cnc3ccccc32)cc1
→ 4, -2.1, 0.3, -7.7, -1.1, -4, -8, ·
COc1ccc(NC(=O)c2cc(OC)c(OC)c(OC)c2)cc1S(=O)(=O)N1CCCCC1
→ 5, 3.1, 0.5, 2.1, 3.5, -1, 2, -11
Nn1c(COc2ccccc2F)nnc1SCC(=O)NC1CCS(=O)(=O)C1 (stereo not given)
→ ·, ?, 0.5, 0.5, 2.2, -10, 2, -10
COc1ccc(S(=O)(=O)NCC2CCCN(Cc3cn(C)nc3C)C2)cc1 (stereo not given)
→ -3, 3.5, 0.6, -5.4, 2.9, -6, 2, ?
COc1ccc2nc3ccccc3nc2c1
→ 4, 38*, -9.6, 0.8, -84, 23, -17, -6
O=C(Nc1ccccc1)Nc1cccn(Cc2c(F)cccc2Cl)c1=O
→ 2, -2.8, -5.1, -3.5, -0.3, 28, 18, -4
Cc1cc(S(=O)(=O)NCC(C)C)ccc1OCC(=O)NC1CC1
→ -3, ?, -0.2, 1.4, 2.2, -3, -2, 6
O=C(c1cccs1)N1CCN(C2CCCCC2)CC1
→ 1, ?, 0.4, 0.3, 3.2, 14, 2, -34
CCC(C)NCCCOc1ccc([N+](=O)[O-])cc1 (stereo not given)
→ -6, -0.8, -0.2, 0.8, 5.7, 45, -4, 18
CC(C)CNC(=S)N(CCN(C)C)Cc1cc2cc3c(cc2[nH]c1=O)OCO3
→ -5, -14, 1.3, -5.5, -118, 4, -7, -1
CCCCCCCC[n+]1c(C)n(-c2ccccc2)c2ccc(NC(C)=O)cc21
→ 102*, 0.4, 2.1, 5.5, -3.3, 65*, -16, ?
Cc1cc(C)c(NC(=O)OCCN2CCOCC2)c(C)c1
→ -10, 1.5, 0.9, 4.5, 1.5, 1, 9, -7
COc1ccc(N2CCN(CC(=O)Nc3nnc(-c4ccccc4)s3)CC2)cc1
→ -3, -0.5, -0.3, 2.3, 2.6, 9, 8, -2
COCCOC(=O)c1c(NC(=O)CN(C)c2ccccc2)sc(C(N)=O)c1C
→ 4, -1.7, 0.2, 1.1, 4.2, 17, 10, -5
Cc1ccc(C(=O)CSc2nnc(COc3ccc(C#N)cc3)n2-c2ccccc2)cc1
→ 5, 0.1, 1.8, -1.0, 0.1, 11, -3, -2
CCCS(=O)(=O)N1CCCC(C(=O)N2CCN(c3ccccc3)CC2)C1 (stereo not given)
→ -6, -1.7, 0.2, -4.0, -3.9, 4, 1, 22
COc1ccc(OC)c(NC(=O)CCn2ccnc2)c1
→ ·, -4.8, 1.4, 4.4, 0.9, 6, -4, -8
Cn1c(SCC(=O)O)nnc1C1CCCCC1
→ -2, -6.1, 0.2, -1.9, 2.5, -6, 1, -1
O=C(COc1cc2oc(=O)c3c(c2cc1Cl)CCC3)NCC1CCC(C(=O)O)CC1 (stereo not given)
→ -3, ?, 0.1, 0.6, -40, -3, 2, 7
COc1ccc(NC(=O)CSc2cc(C)nc3c(-c4ccccc4)cnn23)cc1
→ 1, 5.8, 0.1, 1.2, -105, 4, -1, 0
Cc1cc(NS(=O)(=O)Cc2ccccc2)cc(C)c1OCC(=O)N1CCOCC1
→ -11, 7.7, 1.1, 4.5, -1.9, 1, -7, -5
CC1(C)C(=O)N(c2ccccc2)C1c1ccccc1O (stereo not given)
→ -3, -2.7, -0.8, 2.9, 1.4, -3, 10, 13
CCc1nc(SCC(=O)Nc2ccccc2C(=O)OC)n[nH]1
→ -8, -2.0, 1.8, -0.4, -0.1, -6, 10, ?
O=C(c1cccc(Cl)c1)N1CCN(S(=O)(=O)c2ccc(Cl)s2)CC1
→ 1, ·, 0.5, -1.7, -2.5, ·, -3, ·
CCn1ccnc1CN(C)C(=O)c1cc(COc2c(F)cccc2F)on1
→ 0, -4.4, 0.3, 0.2, -0.6, -2, -7, 21
COc1ccc(-c2cn[nH]c2N)cc1OC
→ 2, 0.0, -0.5, -0.2, 0.3, 0, 6, 2
O=C(CC1C(=O)N(c2ccc(Cl)cc2)C(=S)N1CCc1ccncc1)Nc1ccc(F)cc1 (stereo not given)
→ 2, 4.4, 0.3, 0.5, 4.5, 17, -6, 21
CSCC[C@H](NC(=O)[C@H](Cc1ccccc1)n1c(=O)[nH]c2ccccc2c1=O)C(=O)NCC1CCC(C(=O)O)CC1 (stereo not given in full)
→ -8, 5.2, 0.8, 0.8, 4.9, -6, 0, 1
COc1ccc(C)cc1NC(=O)NNC(=O)C(C)Oc1ccc(F)cc1Cl (stereo not given)
→ -7, -1.1, 0.0, 0.5, 0.6, -1, -6, -13
CN(C)S(=O)(=O)n1cnc(C(CCO)c2ncn(S(=O)(=O)N(C)C)c2CCCO)c1 (stereo not given)
→ -6, ·, -1.0, 8.4, 0.0, ·, -2, ·
N#Cc1c([N+](=O)[O-])cc([N+](=O)[O-])cc1S(=O)(=O)Cc1ccccc1
→ 113*, ·, -0.9, 2.4, 4.4, ·, 94*, ·
NC(=O)CC(NC(=O)c1ccccc1)c1ccc(NCCCN2CCCC2=O)c([N+](=O)[O-])c1 (stereo not given)
→ -4, -2.3, 0.4, 0.0, -2.1, -6, 90*, -2
